Bm FixLJ act: activators of Burkholderia fixLJ two-component system, primary screen, B. multivorans, GFP reporter; z-score (concentration not given with the values); B. multivorans fixK-promoter GFP reporter, 18 h; stronger effect = higher value; hit rate 0.3% among 29,000;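 active = replicate mean overnight rise in green fluorescent reporter signal, 3 or more SD over negative controls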;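 also: score is relative to vehicle wells of the plate; 300 nL library stock went into each well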
The depositor's hits bear a star.

SMILES | Bm FixLJ act
O=C(Nc1ccc2oc(-c3cc(Br)ccc3Cl)nc2c1)c1ccc2ccccc2c1 | -0.03
COc1ccc2[nH]cc(CCN=C(NC(=O)c3ccccc3F)Nc3nc(C)cc(C)n3)c2c1 | 0.67
CCN(CC)CCCNC(=O)c1cn(C)c2ccc(S(=O)(=O)N3CCOCC3)cc2c1=O | -0.26
Cc1ccc(CCNC(=O)Cn2c(-c3cccs3)cc3cc(F)ccc32)cc1 | 0.25
O=C(NCc1nncn1CCc1ccccc1)C1CC(=O)N(C2CCCC2)C1 (stereo not drawn) | -1.6
COc1ccc(-c2nc(CN(C)CC3(CO)CC3)c(C)o2)c(F)c1 | -1.1
O=C(Nc1cccc(C(F)(F)F)c1)c1cc2nc(-c3ccccc3)cc(C(F)(F)F)n2n1 | -0.46
Cc1ccn2c(Nc3ccccc3C)c(-c3ccccc3)nc2c1 | -0.51
CCc1cc2c(cc3c(=O)n(CC(=O)N4CCN(c5cc(Cl)ccc5C)CC4)nc(CC)n32)s1 | -1.2
CCc1ccccc1NC(=O)c1ccc2c(c1)N(Cc1cc(C)ccc1C)C(=O)c1ccccc1S2(=O)=O | 0.74
CC(C)CCNc1nc2c(-c3ccccc3)nnn2c2ccccc12 | -2.1
COc1ccccc1-c1c(C)nn2c(-c3ccccc3)cc(-c3ccccc3)nc12 | -0.78
Cc1cc2nc(C(=O)N(CCC(N)=O)CCc3ccccc3)cc(C)n2n1 | 0.74
CCCCCn1c(=O)[nH]c2cc(C(=O)NCc3ccc(F)cc3)ccc2c1=O | -1.5
CCC(=O)N1CCc2cc(Br)cc(S(=O)(=O)CCC(=O)N(CC)Cc3ccccc3)c21 | -0.8
CCc1ccccc1NC(=O)c1c(NC(=O)c2ccccc2)sc2c1CCCC2 | -0.06
COCc1cc(CNC2CCN(c3ccc(F)c(F)c3)CC2)n[nH]1 | -0.43
CCc1ccc(NC(=O)Cn2c(=O)n(CCCC(=O)NCc3ccc4c(c3)OCO4)c(=O)c3ccccc32)cc1 | -2.5
CN(CCNC1CCN(Cc2ccccc2)CC1)S(C)(=O)=O | -0.87
NC(=NCCCCCCN=C(N)/N=C(\N)Nc1ccc(Cl)cc1)/N=C(\N)Nc1ccc(Cl)cc1 | -6.1
Nc1c(C(=O)Nc2ccc(C(=O)O)cc2)sc2nc3c(cc12)CCCC3 | -2
CCOc1ccc(NCc2cccn2-c2nnc(N3CCC(C(=O)NC(C)c4ccccc4)CC3)s2)cc1 (stereo not drawn) | -0.36
Cc1cccc(NC(=O)CC(=O)NC(C)Cc2ccsc2)c1 (stereo not drawn) | 0.08
CN(C)C(=O)Cc1ccc(-n2ccnc2-c2cnn3cccnc23)cc1 | -0.23

3 entries out of the list, ordered by number of heavy atoms, lowest first:
SMILES | Bm FixLJ act
CN(CCNC1CCN(Cc2ccccc2)CC1)S(C)(=O)=O | -0.87
Nc1c(C(=O)Nc2ccc(C(=O)O)cc2)sc2nc3c(cc12)CCCC3 | -2
NC(=NCCCCCCN=C(N)/N=C(\N)Nc1ccc(Cl)cc1)/N=C(\N)Nc1ccc(Cl)cc1 | -6.1

Pulled by structure from the list above (3):
SMILES | Bm FixLJ act
COc1ccc2[nH]cc(CCN=C(NC(=O)c3ccccc3F)Nc3nc(C)cc(C)n3)c2c1 | 0.67
CCc1ccccc1NC(=O)c1ccc2c(c1)N(Cc1cc(C)ccc1C)C(=O)c1ccccc1S2(=O)=O | 0.74
Nc1c(C(=O)Nc2ccc(C(=O)O)cc2)sc2nc3c(cc12)CCCC3 | -2

(further entries)
SMILES | Bm FixLJ act
O=C(N1CCOCC1)N1CCN(c2nccc(CCC(F)(F)F)n2)CC1 | -0.28
COc1ccccc1CNC(=O)CSCc1nc(-c2ccc(OC)c(OC)c2)oc1C | -0.92
CCOC(=O)c1c(Nc2cccc(C(=O)OC)c2)nnc(-c2ccccc2)c1-c1ccccc1 | -0.9
CCn1nc(COc2ccccc2OC)nc1CC1CCCCN1C (stereo not drawn) | 0.99
Cc1ccc(-c2nc(S(=O)(=O)c3ccc(C)cc3)c(N3CCN(c4ccccc4)CC3)o2)cc1 | -0.03
COc1ccc2c(C)c(CCC(=O)NCc3ccc(OC)c(OC)c3)c(=O)oc2c1 | 1.5
COc1ccccc1Nc1ncc(C(=O)Nc2ccc(OC)c(OC)c2)c2ccccc12 | 0.18
COc1cccc(C(=O)NC(c2cnn(C)c2)C2CC(O)C2)c1OC (stereo not drawn) | 0.58
CCOC(=O)c1[nH]c2c(c1Cc1ccccc1)C(=O)CC(c1ccc(C(C)(C)C)cc1)C2 (stereo not drawn) | -0.67
COc1cccc(C2CN(C(=O)CC3CCCC3)CC2C(=O)O)c1OC (stereo not drawn) | -0.35
CCCN(CCC)C(=O)c1cn(CC)c2ccc(S(=O)(=O)N3CCCCC3)cc2c1=O | 0.83
O=C(O)CC(O)(CC(=O)O)C(=O)O | -0.86
CCC(NC(=O)N(C)CC(=O)NC)c1ccc(S(C)(=O)=O)cc1 (stereo not drawn) | -0.75
COc1ccccc1NC(=O)C1=C(C)Nc2nc3ccccc3n2C1c1cccc(Br)c1 (stereo not drawn) | -0.97
CCOc1ccc(S(=O)(=O)c2cn(Cc3ccc(OC)cc3)c3ccc(F)cc3c2=O)cc1 | -0.58
COc1ccc(C2CN(c3ncccc3C#N)C3C4CCN(CC4)C23)cc1 (stereo not drawn) | -0.66
CCCSc1ncc(Cl)c(C(=O)Nc2nc3ccc(OCC)cc3s2)n1 | -0.46
C=CCn1ncc(CN2CCN(c3noc(C(C)C)n3)CC2)c1C | -1.2
Cc1cccc(C)c1NC(=O)CCSc1nc(-c2ccc3c(c2)OCO3)cc(C(F)(F)F)n1 | -0.4
COCCCNC(=O)Cn1c(=O)n(-c2cccc(C)c2)c(=O)c2c3c(sc21)CN(C(C)=O)CC3 | -0.99
O=C(Nc1ccc(Br)cc1C(=O)c1ccccc1)c1ccccc1 | 2.4
CCOC(=O)COc1ccc(CC)cc1C(=O)c1ccn2nc(-c3ccc(F)cc3)cc2n1 | 0.55
CN(Cc1cc(C2CC2)n[nH]1)C(=O)c1cc(C(F)(F)F)n(C)n1 | -0.34
Cn1nc(-c2ccccc2F)c2cc(C(=O)Nc3cc(F)ccc3F)sc21 | 0.88

The final three compounds of the section above open the next one.
SMILES | Bm FixLJ act
CCOC(=O)COc1ccc(CC)cc1C(=O)c1ccn2nc(-c3ccc(F)cc3)cc2n1 | 0.55
CN(Cc1cc(C2CC2)n[nH]1)C(=O)c1cc(C(F)(F)F)n(C)n1 | -0.34
Cn1nc(-c2ccccc2F)c2cc(C(=O)Nc3cc(F)ccc3F)sc21 | 0.88
CCN1CCN(CCOc2ccccc2CN2CC(C(=O)O)C3(CCOCC3)C2)CC1 (stereo not drawn) | 0.39
COC(=O)c1ccc(C(=O)OC)c(NC(=O)c2cc3nc(-c4ccc(C)cc4)cc(C(F)(F)F)n3n2)c1 | 0.24
Cc1cc(=O)[nH]c(=S)[nH]1 | -1
O=C(NCc1ncn[nH]1)c1csc2nc(-c3ccc(Cl)cc3)cn12 | -2.4
CN1CCC2CN(C(=O)Cc3cc4c(cc3Cl)OCCO4)CC2C1=O (stereo not drawn) | -0.66
Cc1cc(=O)[nH]c(CCNC(=O)C(c2cccnc2)N2CCOCC2)n1 (stereo not drawn) | -1.1
Cn1c2ccc(F)cc2c2nnc(SCCN3CCCCC3)nc21 | -0.57
COc1cc(OC)cc(C(=O)Nc2ccccc2-c2nc3ccccc3s2)c1 | -2.7
CCc1ccc2oc(C(=O)Nc3c(C)n(C)n(-c4ccccc4)c3=O)cc(=O)c2c1 | -0.52
CC1CCN(S(=O)(=O)c2ccc3ncn(CC(=O)Nc4ccccc4C(F)(F)F)c(=O)c3c2)CC1 | 0.69
Cc1ccc(-n2c(SCC(N)=O)nc3c(oc4ccccc43)c2=O)cc1C | 0.71
CC1=C(C(N)=O)C(c2ccc(C)cc2)n2nc(SCc3ccccc3)nc2N1 (stereo not drawn) | -0.43
COCC(=O)N1CCc2[nH]cnc2C12CCN(C(=O)c1cnccc1C)CC2 | -1.5
Cc1ccc(NC(=O)c2cc3c(Cl)nc4ccc(C)cc4c3s2)c(Cl)c1 | -1.3
COc1ccc(NC(=O)CSc2nc(-c3ccco3)cc(C(F)(F)F)n2)cc1OC | -0.61
COc1ccc(C2c3c(-c4ccccc4O)n[nH]c3C(=O)N2Cc2ccco2)cc1 (stereo not drawn) | 1.4
Cc1ccccc1Cn1nnc2c(=O)[nH]c(C3CCCN(C(=O)c4ccc(F)cc4)C3)nc21 (stereo not drawn) | 1
Cc1ccc(CNC(=O)CCCn2c(=O)[nH]c3ccc(Br)cc3c2=O)cc1 | 1
Cc1cccc(NC(=O)CN(c2ccc(C(C)C)cc2)S(=O)(=O)c2c(C)nn(C)c2C)c1C | -1.1
COc1ccc(Cn2c(CCC(=O)NCc3ccc(Cl)cc3)nc3cccnc32)cc1 | 0.69
CCc1ccc(OCc2cc(=O)n3c4c(sc3n2)CCCC4)cc1 | -0.41
CCS(=O)(=O)CCNC(=O)c1cccc(-c2cc(F)ccc2C(C)=O)c1 | 0.56
CCOC(=O)c1ccc(N2C(=O)c3n[nH]c(-c4cccs4)c3C2c2ccc(Cl)cc2Cl)cc1 (stereo not drawn) | 0.94
Cc1cc(NC(=O)c2cc(-c3cccc(Cl)c3)on2)n(-c2ccccc2)n1 | -2.4
CCc1cc2c(cc3c(=O)n(CC(=O)NCc4cc(Br)ccc4OC)ncn32)s1 | 0.92
CC(C)CNc1nc(NC(C)(C)C)nc(Oc2ccc(=O)n(-c3ccccc3)n2)n1 | 1.5
COc1ccc2c(c1)CCc1sc(NC(=O)c3ccc(Cl)cc3)nc1-2 | -0.11
CC(Cc1cnccn1)N(C)C(=O)c1c[nH]c2cc(Cl)ccc2c1=O (stereo not drawn) | -0.33
COc1cccc(SCC(=O)NC(C)Cc2cc(C)[nH]n2)c1 (stereo not drawn) | 0.03
Cc1ccsc1CCNC(=O)C(C)(C)NC(=O)c1cccs1 | -2.8
Cc1ccccc1-c1nc(CN2CCC(C(=O)NCc3ccc(F)cc3)CC2)c(C)o1 | -2.3
O=C(O)c1ccccc1NC(=O)N1c2ccccc2Sc2ccccc21 | 1.2
CCc1nc(N2CC(O)C(CS(=O)(=O)N(C)C)C2)ncc1C (stereo not drawn) | 1.1
CCOc1ccc(CCNC(=O)c2cc3c(s2)-c2c(C)cccc2OC3)cc1 | -1
CCOc1ccc2c(c1)c(=O)c(S(=O)(=O)c1ccc(F)cc1)cn2CC(=O)Nc1ccccc1C | -1.8
O=C(CN1CCOc2ccccc2C1)N1CCN(c2ncn[nH]2)CC1 | 0.33
COCCN1CC2(CCCN(c3cccc(C#N)n3)C2)CCC1=O (stereo not drawn) | -2.2
O=C(NCC1CCCN(C(=O)CN2CCOc3ccccc3C2)C1)c1ccon1 (stereo not drawn) | -2.9
CCn1cc2nc(SCc3cccc(OC)c3)n(Cc3ccc(Cl)cc3)c(=O)c2n1 | 2.1
COc1ccc(-c2nc3c(c(SCC(=O)N4CCCCC4)n2)Cc2cc(Cl)ccc2O3)cc1 | -0.66
O=C(Cn1c(=O)n(Cc2ccccc2)c(=O)c2sc3ccccc3c21)NCc1ccccc1Cl | -0.5
Cc1ccc(S(=O)(=O)c2cn(CC(=O)Nc3cccc(C)c3)c3cc4c(cc3c2=O)OCO4)cc1 | -0.58
CCC(=O)N1CCc2cc(S(=O)(=O)NCCC(=O)Nc3ccc(OC)c(Cl)c3)ccc21 | -0.35
CCOC(=O)CN1C(C(=O)c2ccccc2)=C(OC(=O)C(C)(C)C)c2ccccc2S1(=O)=O | 0.12
Cc1cc(N2CCC(C(=O)Nc3ccc(F)cc3C)CC2)n2nc(C)c(-c3ccc(Cl)cc3)c2n1 | -0.4
Cc1cnc(C)c(-c2cc(O)c3c(c2)CN(C(=O)C2CCNC2)CCO3)n1 (stereo not drawn) | -0.11
O=C(NCc1ccc(-n2cncn2)cc1)c1cccc2c1OCC2 | -0.72
COc1ccc(Cl)c(Cn2c(NCCN)nc3c2c(=O)n(C)c(=O)n3C)c1 | -1.1
Cc1ccc(-c2ccc(C(=O)N(C)C3CCS(=O)(=O)CC3)cc2)cc1 | -0.44
COc1ccc2c(c1)cc1c(=O)n(CC(=O)NC3CCCCC3)nc(C)n12 | -1.4
COc1ccc(CCNC(=O)c2cn(C)c3ccc(S(=O)(=O)N4CCOCC4)cc3c2=O)cc1OC | -0.89
CCn1c(C(=O)Nc2cc(C)cc(C)c2)cc2sc(Cl)cc21 | 0.07
CN(Cc1nc(-c2ccccc2)no1)Cc1cnc(N2CCOCC2)s1 | -1.5
CC(C)c1ccc(Nc2cc(C(=O)NC3CCCCC3)c3ccccc3n2)cc1 | -0.58
CSc1nc2sc3c(c2c(=O)n1-c1ccc(C)cc1)CCCC3 | -1.4
CC1CCN(Cc2c(O)ccc3c(=O)c(-c4cccc(Cl)c4)c(C(F)(F)F)oc23)CC1 | -2.8
Cc1nc(CCN(C)C(=O)NC(CCn2ccnc2C)c2ccccc2)no1 (stereo not drawn) | -1
COc1ccc(Cl)cc1NC(=O)c1cc(=O)c2cc(C)cc(C)c2o1 | -2.1
Cc1cccc(NC(c2cccc(Cl)c2)c2ccc3cccnc3c2O)n1 (stereo not drawn) | 0.28
O=C(Nc1ccc2c(c1)COC2)N1CCCN(C(=O)C2CCCO2)CC1 (stereo not drawn) | -0.38

(next part)
SMILES | Bm FixLJ act
CCC(=O)N1CCc2cc(Br)cc(S(=O)(=O)CCC(=O)N3CCN(c4cccc(C)c4)C(C)C3)c21 (stereo not drawn) | -1.6
COc1ccc2[nH]cc(CCNC(=O)Nc3ccccc3)c2c1 | -2.2
Cc1ccc(CN(Cc2ccco2)C(=O)c2ccc(Cl)cc2Cl)cc1 | 0.21
COc1ccc(C2CC(=O)N(Cc3ccc(F)cc3)c3ccccc3S2)cc1OC (stereo not drawn) | -0.31

A portion of the library; count on the stated rates, not on these rows.
